Polio RdRp inh: poliovirus RNA polymerase inhibition; poliovirus polymerase elongation, fluorescence polarization; active compounds read low; % elongation, % (compound at 16.7 µg/mL); actives 0.66% (n = 150,000); in the data active = % elongation below about 90%; also: some results filed as inactive read as strong as hits
Target sequence (P03300 1749-2209 limits assumed): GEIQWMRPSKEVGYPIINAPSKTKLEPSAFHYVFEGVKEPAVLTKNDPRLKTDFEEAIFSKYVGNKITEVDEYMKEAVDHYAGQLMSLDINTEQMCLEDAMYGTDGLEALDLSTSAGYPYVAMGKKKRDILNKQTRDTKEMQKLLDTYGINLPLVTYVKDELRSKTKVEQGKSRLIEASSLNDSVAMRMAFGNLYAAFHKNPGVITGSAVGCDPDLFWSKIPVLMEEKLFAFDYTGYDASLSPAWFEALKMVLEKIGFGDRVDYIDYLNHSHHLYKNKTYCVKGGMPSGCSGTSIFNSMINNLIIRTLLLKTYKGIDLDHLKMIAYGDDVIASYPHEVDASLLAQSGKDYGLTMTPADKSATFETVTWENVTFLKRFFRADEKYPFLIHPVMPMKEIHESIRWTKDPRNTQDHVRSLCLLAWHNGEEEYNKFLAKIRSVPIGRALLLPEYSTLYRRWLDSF
Polio RdRp inh intensity: second read-out of Polio RdRp inh, no call of its own (marks repeat the call); % elongation; measured here: total intensity read-out; formula for this scale not given here;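 total fluorescence in place of polarization; lower means less elongation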
* = called active by the depositor.

The opening 18 entries, to show the layout:
SMILES | Polio RdRp inh | Polio RdRp inh intensity
COc1cc(NC(=O)Nc2nnc(N3CCCCCC3)s2)cc(OC)c1 | 111 | 115
COC(=O)c1ccccc1NC(=O)Cn1c(=O)n(CCCC(=O)NCCc2ccc(OC)c(OC)c2)c(=O)c2ccccc21 | 104 | 105
Cc1ccc(-n2ncc3c(NCCCc4ccccc4)ncnc32)cc1C | 108 | 114
CCOc1ccc(Cn2nnc3c(=O)[nH]c(C4CCN(C(=O)c5ccccc5)CC4)nc32)cc1 | 100 | 107
O=C(Cn1ncc2c3ccccc3n(Cc3ccccc3)c2c1=O)Nc1ccccc1C(F)(F)F | 109 | 113
CCOC(=O)c1c(C)sc(-c2c(-c3cccc(Cl)c3)[nH]c3c2c(=O)n(C)c(=O)n3C)c1O | 117 | 256
CCCNC(=O)c1ccc2c(c1)ncn2-c1ccc(C)cc1C | 107 | 112
CCOC(=O)c1cccc(NS(=O)(=O)c2cc3c(cc2C)NC(=O)CO3)c1 | 117 | 118
COc1cccc(NC(=O)c2oc3ccc(S(=O)(=O)N4CCC5(CC4)OCCO5)cc3c2C)c1 | 104 | 93
CC(C)c1ccc(C2=NC(c3ccncc3)=Nc3ccc(F)cc3N2)cc1 | 112 | 109
COc1ccc(NC(=O)CSc2ncc(-c3ccc(Cl)cc3)[nH]2)cc1OC | 102 | 106
O=C(Cn1c(=O)nc(-c2ccccc2)c2cc(Cl)ccc21)NCCc1ccc(Cl)cc1 | 109 | 114
Cc1oc(-c2ccc(Cl)cc2)nc1Cn1c(=O)cc(-c2ccccc2)c2c(C)nn(C)c21 | 102 | 107
COc1ccc(-c2cc(C(=O)Nc3c(C)n(C)n(-c4ccccc4)c3=O)no2)cc1OC | 104 | 108
COc1ccccc1CNC(=O)C1CCN(S(=O)(=O)c2c(C)noc2/C=C/c2cccs2)CC1 | 104 | 100
CCOC(=O)c1ccc(CN(Cc2ccccc2)S(=O)(=O)c2ccc(C)cc2)cc1 | 105 | 94
c1ccc(-c2cc(-c3ccccc3)c3c(n2)-c2ccccc2OC3)cc1 | 105 | 110
COc1cccc(CNCCSc2nnnn2C)c1OCc1ccc(F)cc1 | 103 | 106

The listing, from the start:
SMILES | Polio RdRp inh | Polio RdRp inh intensity
COc1cc(NC(=O)Nc2nnc(N3CCCCCC3)s2)cc(OC)c1 | 111 | 115
COC(=O)c1ccccc1NC(=O)Cn1c(=O)n(CCCC(=O)NCCc2ccc(OC)c(OC)c2)c(=O)c2ccccc21 | 104 | 105
Cc1ccc(-n2ncc3c(NCCCc4ccccc4)ncnc32)cc1C | 108 | 114
CCOc1ccc(Cn2nnc3c(=O)[nH]c(C4CCN(C(=O)c5ccccc5)CC4)nc32)cc1 | 100 | 107
O=C(Cn1ncc2c3ccccc3n(Cc3ccccc3)c2c1=O)Nc1ccccc1C(F)(F)F | 109 | 113
CCOC(=O)c1c(C)sc(-c2c(-c3cccc(Cl)c3)[nH]c3c2c(=O)n(C)c(=O)n3C)c1O | 117 | 256
CCCNC(=O)c1ccc2c(c1)ncn2-c1ccc(C)cc1C | 107 | 112
CCOC(=O)c1cccc(NS(=O)(=O)c2cc3c(cc2C)NC(=O)CO3)c1 | 117 | 118
COc1cccc(NC(=O)c2oc3ccc(S(=O)(=O)N4CCC5(CC4)OCCO5)cc3c2C)c1 | 104 | 93
CC(C)c1ccc(C2=NC(c3ccncc3)=Nc3ccc(F)cc3N2)cc1 | 112 | 109
COc1ccc(NC(=O)CSc2ncc(-c3ccc(Cl)cc3)[nH]2)cc1OC | 102 | 106
O=C(Cn1c(=O)nc(-c2ccccc2)c2cc(Cl)ccc21)NCCc1ccc(Cl)cc1 | 109 | 114
Cc1oc(-c2ccc(Cl)cc2)nc1Cn1c(=O)cc(-c2ccccc2)c2c(C)nn(C)c21 | 102 | 107
COc1ccc(-c2cc(C(=O)Nc3c(C)n(C)n(-c4ccccc4)c3=O)no2)cc1OC | 104 | 108
COc1ccccc1CNC(=O)C1CCN(S(=O)(=O)c2c(C)noc2/C=C/c2cccs2)CC1 | 104 | 100

Copied from the list:
In Polio RdRp inh, Cc1oc(-c2ccc(Cl)cc2)nc1Cn1c(=O)cc(-c2ccccc2)c2c(C)nn(C)c21 has 102
In Polio RdRp inh intensity, CCOC(=O)c1cccc(NS(=O)(=O)c2cc3c(cc2C)NC(=O)CO3)c1 has 118

Continuation.
SMILES | Polio RdRp inh | Polio RdRp inh intensity
CCOC(=O)c1ccc(CN(Cc2ccccc2)S(=O)(=O)c2ccc(C)cc2)cc1 | 105 | 94
c1ccc(-c2cc(-c3ccccc3)c3c(n2)-c2ccccc2OC3)cc1 | 105 | 110
COc1cccc(CNCCSc2nnnn2C)c1OCc1ccc(F)cc1 | 103 | 106
O=C(Cn1c(=O)n(CCc2ccccc2)c(=O)c2cccnc21)Nc1ccc(F)cc1 | 104 | 110
CCCCSc1nnc2n(-c3cccc(C)c3)c(=O)c3c4c(sc3n12)CCCC4 | 100 | 100
Cc1ccc(NC(=O)CN(C)S(=O)(=O)c2ccc3c(c2)n(C)c(=O)c(=O)n3C)c(C)c1 | 96 | 99
CCn1c(=NC(=O)c2ccc(S(=O)(=O)N3CCCC3)cc2)sc2cc(Br)ccc21 | 101 | 101
CCOC(=O)CCC(=O)Nc1nnc2n1CCS2 | 102 | 102
CCCc1ccc(OCc2ccc(C(=O)Nc3ccccc3C(=O)OC)o2)cc1 | 107 | 106
COCCNC(=O)CSc1nc2cc3c(cc2c(=O)n1CCCCCC(=O)NCCc1ccc(OC)c(OC)c1)OCO3 | 104 | 103
COc1cccc(CNC(=O)CSC2=Nc3ccccc3C3=NC(C)C(=O)N23)c1OC (stereo not given) | 105 | 97
COc1ccccc1C(=O)Nc1cccc(OCc2cc(=O)n3c(C)csc3n2)c1 | 102 | 106
COc1ccccc1NC(=O)C1=C(C)Nc2nnnn2C1c1cc(Br)c(O)c(OC)c1 (stereo not given) | 104 | 105
CCS(=O)(=O)c1c(Nc2ccc(F)c(Cl)c2)sc(C(=O)c2ccccc2)c1N | 105 | 106
COc1ccc(CNC(=O)Cn2nc(C)c3nn(-c4ccc(Cl)cc4)c(C)c3c2=O)cc1 | 106 | 114
O=C(CSc1nc(-c2ccccc2)no1)N1CCN(c2ccccc2F)CC1 | 105 | 101
CCOC(=O)c1ccc(N2C(=O)c3[nH]nc(-c4ccc(OCC)cc4)c3C2c2cccs2)cc1 (stereo not given) | 107 | 106
O=C(Nc1ccc(Cl)cc1C(F)(F)F)c1cc(S(=O)(=O)NCc2ccccc2)ccc1F | 111 | 109
Cc1nc(CC(=O)Nc2ccc(C)c(C)c2)cs1 | 109 | 117
COc1ccc(CCNC(=O)Cn2cc(C(=O)c3ccc(Cl)cc3)c(=O)c3ccc(C)nc32)cc1OC | 118 | 104
COc1ccc(-c2cc(C(=O)Nc3c(C(=O)c4ccc(C)c(F)c4)oc4ccccc34)no2)cc1 | 107 | 106
CCN1CCN(C(=O)c2ccc3c(c2)N(Cc2ccccc2)C(=O)c2ccccc2S3=O)CC1 (stereo not given) | 100 | 99
COc1ccc(OC)c(NC(=O)CN(C)S(=O)(=O)c2ccc3[nH]c4c(c3c2)CCCC4)c1 | 105 | 108
O=C(Nc1ccccc1Cl)c1cc2c(-c3ccccc3)nn(-c3ccccc3)c2s1 | 106 | 110
N#Cc1ccccc1S(=O)(=O)N1CCC(Oc2ccc(-n3cnnn3)cc2)CC1 | 103 | 103
COc1ccccc1CNC(=O)c1ccc2c(c1)sc1nc(-c3ccc(F)cc3)cn12 | 103 | 109
COc1ccc(C)cc1NC(=O)c1nnn(Cc2cccc(Br)c2)c1N | 102 | 102
NS(=O)(=O)c1ccc(NC(=O)CSc2ccc3ccccc3n2)cc1 | 106 | 106
COc1ccc(N(CC(=O)NCCc2ccccc2)S(=O)(=O)c2ccc(OC)c(OC)c2)cc1 | 104 | 105
COC(=O)CCN(c1ccccc1)S(=O)(=O)c1cc(-c2cc(C)no2)ccc1OC | 107 | 112
COc1ccc(S(=O)(=O)n2nc(C)c(S(=O)(=O)N3CCCCC3)c2C)cc1 | 111 | 106
Cc1ccc(-c2ccc(=O)n(C(C)C(=O)Nc3ccccc3Cl)n2)cc1C (stereo not given) | 110 | 113
COc1ccccc1CCNC(=O)C(=O)NCC(c1ccco1)S(=O)(=O)c1cccs1 (stereo not given) | 107 | 116
COc1ccc(Nc2cc(C(=O)NCCCN(C)c3ccccc3)c3ccccc3n2)c(OC)c1 | 107 | 105
COCCCNC(=O)CN1C(=O)COc2ccc(S(=O)(=O)N3CCCC3)cc21 | 105 | 105
CCc1cccc(NC(c2nnc(-c3ccccc3)o2)c2ccc(F)cc2Cl)c1 (stereo not given) | 106 | 107
CCOc1ccccc1CNC(=O)c1nc(-c2ccc(Cl)cc2)n2c1CCCCC2 | 104 | 111
COc1ccc(CNC(=O)c2cnc(N3CCCC3)nc2C)c(OC)c1 | 106 | 115
CCCCCCOc1ccc(-c2nc3ccc(Br)cc3c(=O)o2)cc1 | 104 | 111
COc1ccc(-n2c(CCC(=O)O)ccc2-c2ccccc2)c(OC)c1 | 105 | 103
CCc1ccc(-n2c(CCC(=O)O)ccc2-c2ccc(F)cc2)cc1 | 108 | 112
Cc1cccc(OC(C)C(=O)Nc2nonc2-c2ccc(Br)cc2)c1C (stereo not given) | 109 | 112
COc1ccc(C2C(=O)N(C3CCC(C)CC3)CC(=O)N2CCC2=CCCCC2)cc1OC (stereo not given) | 115 | 103
CCNc1nc(NC(C)(C)C)nc(Oc2ccc(=O)n(-c3ccccc3)n2)n1 | 104 | 104
CCOc1ccc(Nc2ncnc3c2cnn3-c2ccc(F)cc2)cc1 | 109 | 106
Cc1ccc(NC(=O)C2CCN(C(=O)c3cnn(-c4ccccc4)c3-n3cccc3)CC2)cc1C | 109 | 109
COc1ccc(Cl)cc1NC(=O)CN(c1cccc(C)c1C)S(C)(=O)=O | 108 | 103
COc1cc(OC)c(NS(=O)(=O)c2c(C)nc3sc(C)cn3c2=O)cc1Cl | 109 | 111
CCc1ccc(NCc2cc3cc4c(cc3n(CC(=O)Nc3ccc(Cl)cc3)c2=O)OCO4)cc1 | 106 | 111
O=C(CSc1oc(-c2ccc(F)cc2)nc1S(=O)(=O)c1ccc(Br)cc1)NC1CCCCC1 | 109 | 111
CCOCCCNC(=O)Cn1ncc2c([nH]c3ccc(C)cc32)c1=O | 108 | 108
COc1ccc(NC(=O)CSc2nc3c(oc4ccccc43)c(=O)n2-c2ccc(C)c(C)c2)cc1 | 101 | 107
Cc1ccc(-c2nc3c(c(SCc4ccc(Br)cc4)n2)Cc2c(CO)cnc(C)c2O3)cc1 | 106 | 111
Cn1c(=O)n(C/C=C/c2ccccc2)c(=O)c2c1nc1n2CCN1c1ccccc1 | 115 | 102
CCOC(=O)c1ccc(NC(=O)Cc2coc3cc(C)cc(C)c23)cc1 | 117 | 112
CC(=O)c1ccc(C(=O)N(CCCN(C)C)c2nc3c(C)c(C)ccc3s2)cc1 | 99 | 96
O=C(CCCn1c(=O)c2cccn2c2ccccc21)NCCc1ccc(Cl)cc1 | 107 | 113
Cc1ccc(C(=O)Nc2cccc(O)c2)cc1S(=O)(=O)N1CCCCCC1 | 101 | 105
CCCOc1cccc(C2c3c(oc4ccc(F)cc4c3=O)C(=O)N2c2nc(C)c(C(C)=O)s2)c1 (stereo not given) | 101 | 103
Cc1ccc(C(=O)Nc2cccc(C(=O)O)c2)cc1S(=O)(=O)N1CCCC1 | 102 | 106
Additional records
SMILES | Polio RdRp inh | Polio RdRp inh intensity
COc1ccc(C)cc1NC(=O)CSc1nc(=O)n(Cc2cccnc2)c2c1CCC2 | 111 | 105
CC(C)c1noc(-c2ccccc2OCC(=O)Nc2ccc([N+](=O)[O-])cc2)n1 | 110 | 112
COc1cccc(CNC(=O)CCS(=O)(=O)c2ccc3c(c2)CC(C)N3C(=O)C2CC2)c1 (stereo not given) | 100 | 105
COc1ccc(NC(=O)c2cccn2-c2nnc(N3CCCCC3)s2)cc1 | 105 | 106
Cc1oc2c(c(C)cc3oc(=O)c(CC(=O)NCc4ccccc4)c(C)c32)c1C | 110 | 113
COc1ccc(-c2ccc(NS(=O)(=O)c3ccc(OC)c(OC)c3)cc2)nn1 | 108 | 107
Cc1cc(C)n(-c2nc3cc(Cl)c(Cl)cc3nc2Nc2ccc(F)cc2C)n1 | 107 | 110
CCN(CC)CCSc1c(C(C)C)cnc2c1c(=O)n(C)c(=O)n2C | 113 | 109
O=C(CC(c1cccs1)N1Cc2ccccc2C1=O)Nc1ccccc1F (stereo not given) | 105 | 105
CC(=O)Nc1ccc(NS(=O)(=O)c2ccc3[nH]c4c(c3c2)CCCCC4)cc1 | 113 | 113
COc1cccc(N2C(=O)CSC23C(=O)N(CC(=O)Nc2cc(C)ccc2C)c2ccccc23)c1 (stereo not given) | 109 | 111
Cc1cccc(CNC(=O)Cn2nc(C)n3c(cc4cc(F)ccc43)c2=O)c1 | 104 | 109
Cc1ccc(-c2cc3c(N4CCN(c5cc(C)ccc5C)CC4)nccn3n2)cc1 | 106 | 111
CCOc1ccc(NC(=O)CN2C(=O)C(c3ccccc3)=NC23CCC(C)CC3)cc1 (stereo not given) | 107 | 105
Cc1ccc(CCNC(=O)c2c(C)oc3nc(C)nc(N4CCOCC4)c23)cc1 | 112 | 107
Cc1cccc(C)c1NS(=O)(=O)c1ccc2c(c1)[C@H]1C=CC[C@H]1[C@@H](c1ccc(Cl)cc1)N2 | 135 | 179
COc1ccc(NC(=O)Cn2nnc(C(=O)NCc3ccc4c(c3)OCO4)c2N)cc1 | 110 | 112
Cc1ccc(C(=O)N2CCc3cc(CNC(=O)CSc4ccccc4)ccc32)cc1 | 103 | 104
COc1cc(OC)c(NS(=O)(=O)c2ccc3c(c2)NC(=O)CCS3)cc1Cl | 103 | 98
CCc1ccc(-c2nc(CSCC(=O)N3CCN(c4ccc(F)cc4)CC3)c(C)o2)cc1 | 103 | 103
Cc1ccc2c(c1)c1c(c(=O)n(-c3ccccc3C)c(=O)n1CC(=O)c1ccc(Cl)cc1)n2C | 114 | 115
CCCCN(C)C(=O)c1ccc2c(c1)NC(=O)C(CC(C)C)N2 (stereo not given) | 112 | 111
Cc1ccc(NC(=O)C2CCN(S(=O)(=O)c3ccc4c(c3)CCCC(=O)N4)CC2)cc1N(C)C | 103 | 99

High-throughput results: PubChem BioAssay, ICCB-Longwood Screening Facility, Harvard Medical School

An excerpt (hit frequency here may not be typical).
